# BJeLR lethal: kills HRASV12-expressing BJeLR cells; 0.17% of 300,000 active; BJeLR (HRASV12) viability, CellTiter-Glo ATP luminescence, 48 h; reference of the scale not given here; inhibition, % (concentration not given with the values);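 active = replicate mean above 50%; inconclusive = above 50% but judged a plate artefact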;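 also: 50 nL library stock added to about 25 µL; numbers are from one replicate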
# Autofluor counter: compound fluorescence in toxin protease inhibitor counterscreen; compound autofluorescence counterscreen, microsphere flow cytometry; hits give high values; fluorescence intensity (no concentration beside the values); 3.1% of 360,000 active; AID 624483;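 active = at least 3 SD above the mean of all compounds, about 16000 in these data; inconclusive = too few beads counted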;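 also: 100 nL of 1 mM stock went into each well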
# Mtb hypoxia rep: inhibitors of hypoxia-regulated fluorescent reporter in Mycobacterium tuberculosis; 0.1% of 300,000 active; M. tuberculosis hypoxia-regulated fluorescent reporter, fluorescence; fluorescence inhibition, % (no concentration beside the values); AID 1159583;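 active = 35 to 45% if threefold the growth effect, above 45% if 1.5-fold the growth effect; inactive = the rest, general growth blockers included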;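 also: wells of about 50 µL received 100 nL stock; 0% = vehicle wells and 100% = reference inhibitor wells; whole bacteria with a GFP reporter of the hypoxia response; strong numbers were not always called active; many hits fall short of the cut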
# PrP UTR inh: inhibition of PrP 5' UTR reporter expression. AID 488862. inhibition, % (concentration not given with the values). cell-based PrP 5' UTR mRNA reporter, plate reader. 0.35% of 340,000 active;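 active = every replicate at 50% or more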;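 also: 0 = median of the neutral control wells; tested in H4 reporter cells; numbers are from one replicate; inactives centre near -14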
# ugtP null kill: compounds lethal to S. aureus RN4220 ugtP deletion mutant; OD600 growth, 16 h; some inactives read as strong as hits; growth inhibition, % (test concentration not listed); 0.54% of 330,000 active; AID 1259309;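 active = z-score under -3 and OD600 up to 0.15 on both plates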;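 also: plate controls were untreated wells for no effect and antibiotic for full effect; wells of about 80 µL received 100 nL stock; the first replicate is given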
# Sa RN4220 lethal: S. aureus RN4220 growth inhibition; OD600, 16 h; inhibition, % (no concentration beside the values); 0.33% of 330,000 active; AID 1259311;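 active = z-score of -3 or lower and OD600 up to 0.18 on both plates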;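 also: plate controls were untreated cells for no effect and reference antibiotic for full effect; stock transfer was 100 nL into about 80 µL; one replicate is shown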
# Mtb hypoxia rep growth: second read-out of Mtb hypoxia rep, no call of its own (marks repeat the call); growth inhibition, %; measured here: M. tuberculosis growth (absorbance);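 0% = vehicle and 100% = reference antibiotic; read after six days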
# * hit, by the source's call; ? = inconclusive; . = no result given.
# Sample of the layout (3 entries):
SMILES,BJeLR lethal,Autofluor counter,Mtb hypoxia rep,Mtb hypoxia rep growth,PrP UTR inh,ugtP null kill,Sa RN4220 lethal
Cc1ccc(NC(=O)c2ccccc2)cc1,-0.3,9886,5.1,6.8,-70.2,5.9,3.5
CC(Oc1ccc(F)cc1)C(=O)N(Cc1ccccc1)c1c(N)n(Cc2ccccc2)c(=O)[nH]c1=O (configuration not stated),8.9,5853,10.8,3.4,1.6,0.8,2.3
CC(C)(C)C(=O)NC(=S)Nc1ccc(C(F)(F)F)cc1,-12.2,5954,.,.,-33.4,33.7,-2.9

# The listing, from the start:
SMILES,BJeLR lethal,Autofluor counter,Mtb hypoxia rep,Mtb hypoxia rep growth,PrP UTR inh,ugtP null kill,Sa RN4220 lethal
Cc1ccc(NC(=O)c2ccccc2)cc1,-0.3,9886,5.1,6.8,-70.2,5.9,3.5
CC(Oc1ccc(F)cc1)C(=O)N(Cc1ccccc1)c1c(N)n(Cc2ccccc2)c(=O)[nH]c1=O (configuration not stated),8.9,5853,10.8,3.4,1.6,0.8,2.3
CC(C)(C)C(=O)NC(=S)Nc1ccc(C(F)(F)F)cc1,-12.2,5954,.,.,-33.4,33.7,-2.9
CC1C/C(=C/c2ccco2)C(=O)/C(=C/c2ccco2)C1 (configuration not stated),-5.6,.,17.0,4.7,.,72.4,12.8
Nc1[nH]nc2nc(N3CCOCC3)nc(-c3ccccc3)c12,2.7,10179,5.2,4.7,-10.9,43.0,-0.1
COC(=O)c1c(-c2ccccc2Cl)noc1-c1cnc(N)nc1C(F)(F)F,3.4,4706,-3.5,-1.7,-11.0,16.0,4.7
CCCc1[nH]nc2c1C(c1cc(OC)ccc1F)C(C#N)=C(N)O2 (configuration not stated),0.3,18896*,5.9,2.8,-19.3,8.7,4.3
N#Cc1cc([N+](=O)[O-])ccc1Oc1cccc(/C=N/NC(=O)c2ccc(Cl)cc2)c1,-7.1,4288,.,.,-42.8,.,.
Cc1c(OC(C)C(=O)NC(Cc2c[nH]c3ccc(O)cc23)C(=O)O)ccc2c1oc(=O)c1ccccc12 (configuration not stated),-3.6,4144,.,.,-11.3,10.7,0.7
Brc1cccc(-c2nnco2)c1,12.2,6789,-0.4,2.7,-12.4,-2.4,3.4
CCn1c(CSc2nc3ccccc3s2)nnc1SCC(=O)c1ccc(O)c(O)c1,-0.3,6098,13.3,2.9,2.1,3.6,12.9
COc1cc(C2C(C#N)=C(N)Oc3c2oc(CO)cc3=O)cc(OC)c1OC (configuration not stated),0.2,9501,7.0,1.7,-11.5,7.2,-0.2
O=S(=O)(Cc1ccccc1Cl)NCCOc1ccccc1,-7.4,9818,14.6,13.4,-0.1,14.2,8.2
COC(=O)c1cc(C(=O)OCC(=O)NC2CCCCCCC2)cc([N+](=O)[O-])c1,.,3087,11.3,-0.7,-15.4,8.6,2.5
Cc1ccc(C(=O)Nc2ccc(C(=O)N/N=C/c3c[nH]c4ccccc34)cc2)cc1,-8.8,2401,.,.,-8.3,.,.

# Two of the compounds above, as labelled records:
canonical_smiles: Nc1[nH]nc2nc(N3CCOCC3)nc(-c3ccccc3)c12
  BJeLR lethal: 2.7	Autofluor counter: 10179	Mtb hypoxia rep: 5.2	Mtb hypoxia rep growth: 4.7	PrP UTR inh: -10.9	ugtP null kill: 43.0	Sa RN4220 lethal: -0.1

canonical_smiles: N#Cc1cc([N+](=O)[O-])ccc1Oc1cccc(/C=N/NC(=O)c2ccc(Cl)cc2)c1
  BJeLR lethal: -7.1	Autofluor counter: 4288	Mtb hypoxia rep: .	Mtb hypoxia rep growth: .	PrP UTR inh: -42.8	ugtP null kill: .	Sa RN4220 lethal: .

# The list continues:
SMILES,BJeLR lethal,Autofluor counter,Mtb hypoxia rep,Mtb hypoxia rep growth,PrP UTR inh,ugtP null kill,Sa RN4220 lethal
O=C1N/C(=N/S(=O)(=O)Cc2ccccc2)S/C1=C/c1ccc2c(c1)OCO2,-3.1,3826,9.7,1.2,-3.1,14.6,24.5
O=C(OCc1cncs1)c1ccccc1,-4.2,4349,14.9,11.8,-103.8,-2.4,5.9
CCCN(C(=O)c1ccc(N(C)S(=O)(=O)c2ccc(C)cc2)cc1)C1CCS(=O)(=O)C1 (configuration not stated),1.9,4725,6.5,-3.0,-16.6,4.3,5.3
COc1ccc(NC(=O)c2cc(=O)c3ccccc3o2)cn1,1.8,4684,.,.,2.4,3.2,0.2
Cc1cccc(NC(=O)/C(C#N)=C/c2ccccc2Cl)n1,3.3,3666,5.2,3.2,-18.4,1.1,8.7
Cc1cc(C)n2nc(SC(C)C(=O)N(C)C3CCCCC3)nc2n1 (configuration not stated),.,3918,10.7,13.0,-10.3,4.1,1.5
CCOCC(=O)Nc1cc(C(=O)Nc2ccccc2)ccc1Cl,-10.0,10345,7.4,5.6,-6.2,5.6,2.1
Cc1cccc2c1NC(=O)C2=O,.,3151,1.6,2.9,2.1,2.8,2.9
CC(=O)Nc1sc(NC(=O)c2ccc(Cl)cc2)nc1-c1cccs1,15.1,3436,-10.7,-1.7,-19.5,-11.9,6.5
Cc1cccc(C(=O)N2CCC(N3CCC(C(=O)N4CCOCC4)CC3)CC2)c1,-7.7,5733,10.4,3.9,-10.7,2.7,0.5
c1ccc(Cc2ccc(OCCn3ccnc3)cc2)cc1,18.6,3342,3.5,5.0,-25.7,14.5,3.7
COc1ccc(CC(=O)OCC(=O)Nc2cccc(Cl)c2)cc1,-0.6,3342,-2.6,-2.4,-4.1,3.9,1.6
Cc1ccccc1Cn1nc(C)c(NC(=O)c2cc(CC(C)C)on2)c1C,1.0,4029,-1.3,18.3,-12.5,1.1,0.7
Cc1ccc(/C=C2\CCOC2=O)cc1,13.4,3611,0.1,13.6,-19.4,-2.6,1.4
COc1ccc(C2/C=C\CC(NC(=O)OCC3c4ccccc4-c4ccccc43)CC(=O)N2Cc2ccccc2F)cc1 (configuration not stated),.,3460,-4.4,2.0,-13.0,-2.0,3.4
COc1ccc(N2CC(O)(c3ccc(F)cc3)[N+]3=C2CCCC3)cc1 (configuration not stated),4.6,3743,1.3,3.7,-7.6,3.0,5.1
COCC(=O)Nc1ccc(C)c(Cl)c1,-11.4,4110,3.9,7.2,-16.2,6.6,4.1
NNC(=O)Cn1c(-c2ccccn2)nc2ccccc21,1.1,3511,13.7,2.7,-11.5,6.5,3.3
O=C(CSc1nc(SCC(=O)NCc2ccccc2)n(-c2ccccc2)n1)NCc1ccccc1,-3.4,9861,0.7,-0.4,.,-1.6,-1.4
Cc1ccc(S(=O)(=O)N2CCC(C(=O)N[C@H](C(=O)N3CCN(C)CC3)C(C)C)CC2)cc1,-2.7,15580,7.7,4.1,-12.8,1.9,0.7
COc1ccc(N=C2SC(C(=O)O)CC(=O)N2C)cc1 (configuration not stated),-3.0,?,4.1,7.5,1.7,-1.6,-2.9
Nc1ccc(S(=O)(=O)Nc2nccc(/C=C/c3ccc(Cl)cc3Cl)n2)cc1,-2.6,4725,14.8,-6.9,-3.7,8.7,5.3
Cc1ccc([N+](=O)[O-])cc1NC(=O)c1ccc(-c2ccccc2)cc1,-1.2,3449,.,.,-12.2,0.9,5.5
CS(=O)(=O)c1ccc(Cl)c(NC(=O)CCl)c1,-0.8,3292,22.2,33.5,-29.5,2.4,6.5
Cc1cc(C)n(-c2nnc(SCC(=O)NC3CCCC3)c3ccccc23)n1,-4.6,10201,9.8,13.1,-11.9,5.1,2.7
CC(=O)OC1CCC2(C)C(=CCC3C2CCC2(C)C3CC3ON=C(C)C32)C1 (configuration not stated),.,3109,7.6,4.7,-22.4,14.4,2.1
CC(NC(=O)[C@@H](NC(=O)[C@@H]1Cc2ccccc2CN1)C(C)C)c1ccccc1 (some centres not stated),7.3,5417,1.3,6.2,-8.4,-0.5,0.1
CCCNC(=O)N1CCC(n2nccc2NC(=O)CCOc2ccccc2)CC1,1.8,3900,1.3,-0.1,-7.1,10.6,5.3
COC(=O)Cc1ccc(NC(=O)c2ccc3c(c2)C(=O)N(Cc2ccco2)C3=O)cc1,-8.2,5785,4.0,3.4,-2.1,-5.2,2.3
COc1cccc(C(C[N+](=O)[O-])c2c(C)[nH]n(-c3ccccc3)c2=O)c1 (configuration not stated),-6.1,5389,.,.,-17.5,.,.
COc1ccc(NC(=O)CN2CCN(Cc3ccccc3)CC2)cc1,4.3,3946,3.7,1.0,-27.5,2.9,1.0
CCOc1ccc(OCCN2C(=O)NC3(CCCc4ccccc43)C2=O)cc1 (configuration not stated),-1.7,4014,.,.,-5.8,4.1,3.4
COC(=O)c1ccc(-c2noc(CN3C[C@H]4CC[C@H]3C4)n2)cc1,5.7,2498,-0.8,8.1,-24.4,5.9,1.8
CC(=NNC(=O)c1nnn(-c2nonc2N)c1COc1ccccc1)c1ccc(O)cc1,.,.,-4.6,-5.0,.,-0.7,-0.6
COc1ccc(C2=NCCn3nc4ccccc4c32)cc1,.,2908,0.6,9.6,-21.5,2.5,6.6
COC(=O)c1cc(-c2c(C)oc3cc(OC(C)C)ccc3c2=O)c(C)o1,8.9,10662,-4.4,5.6,-4.1,-1.8,-0.6
O=C(COC(=O)/C=C/c1ccccc1Cl)NCc1ccccc1,3.8,8685,1.9,1.0,-22.4,-2.8,2.8
CN1CCC(=NNC(=O)CN(c2cccc(Br)c2)S(C)(=O)=O)CC1,-1.1,2419,-1.9,2.5,-17.9,-2.9,-2.1
CCC(=O)NCCn1c(C)cc2ccccc21,2.6,5062,-8.8,7.5,0.7,-4.2,-1.8
O=C1CC(C(=O)Nc2ccc(Cl)cc2)S/C(=N\N=Cc2ccco2)N1 (configuration not stated),.,.,-10.2,-7.7,.,1.4,-1.5
N#CCc1nn(-c2ccccc2)c2ncnc(N)c12,-3.1,4318,.,.,-12.5,.,.
CCCCn1c(N)c(N(CCOC)C(=O)CSCc2ccc(C)cc2)c(=O)[nH]c1=O,-0.6,.,-6.4,-3.2,-61.6,3.6,-0.2
CCOC(=O)Cc1csc(SCC(=O)Nc2ccc3[nH]c(=O)[nH]c3c2)n1,.,3687,-0.2,5.3,-6.8,-4.3,-0.1
Cc1nc(NC(=O)/C=C/c2ccc(C(C)(C)C)cc2)sc1C(=O)N(C)C,5.7,2431,4.4,10.1,-14.3,7.6,7.8
CCOCCCNc1ccc(N2C(=O)C3CCCCC3C2=O)cc1[N+](=O)[O-] (configuration not stated),8.2,3669,11.3,2.6,-9.9,6.8,1.2
CCCCCC(=O)NC(=S)Nc1ccc(NC(=O)c2ccco2)cc1,-15.4,2092,.,.,7.6,88.4*,2.2
CCN(CC)c1ccc(NC(=O)COC(=O)C23CCC(=O)N2c2ccccc2S3)cc1 (configuration not stated),1.4,3880,4.0,9.4,-19.8,-11.6,3.0
c1nc(NCC2CCCO2)c2[nH]cnc2n1 (configuration not stated),5.7,10706,-6.9,-3.9,.,-3.1,3.4
NC(N)=N/N=C/c1ccc(Cl)c([N+](=O)[O-])c1,-18.0,4285,.,.,4.4,.,.
CCC1CN(C(=O)N2CCC(C(=O)NCc3cc(OC)c(OC)c(OC)c3)CC2)c2ccccc2O1 (configuration not stated),-2.5,5547,9.0,8.0,-29.1,1.9,1.0
O=C(CN1C(=O)CC(c2ccccc2)=Nc2ccccc21)NCc1ccco1,0.7,4396,.,.,-29.9,3.6,5.5
CS(=O)(=O)N(Cc1cc2ccccc2[nH]c1=O)C1CCCCC1,-6.2,15397,3.5,7.1,-7.3,4.1,6.5
CCOc1cc(C=NN=C(N)c2nonc2N)cc(Br)c1OCc1ccc(Cl)cc1,.,.,5.1,12.5,.,-10.2,-6.6
COc1ccccc1N1CCN(Cc2ccc(Br)s2)CC1,-2.6,20319*,-5.1,-1.7,-18.5,7.7,-4.6
CCc1ccc(-n2c(SCC(=O)Nc3ccc(C(=O)O)cc3)nnc2-c2ccncc2)cc1,7.3,.,2.7,-1.2,.,2.4,9.7
COc1cccc(C(=O)Nc2ccc(F)cc2F)c1,1.4,4464,-13.7,-4.8,-38.8,1.7,3.2
Cc1cccc(NC(=S)NNc2cccc(Cl)c2)c1,-2.9,3865,1.5,3.1,-15.5,15.2,0.1
CCOC(=O)C1CCN(C=C2C(=O)NC(=S)N(c3cccc(OC)c3)C2=O)CC1,.,.,1.6,2.0,.,-0.1,2.2
Cc1ccc(C2c3c(C)nn(-c4ccc([N+](=O)[O-])cc4)c3N=C3C(=O)Nc4ccccc4N32)cc1 (configuration not stated),-2.1,.,40.1*,5.5*,.,3.2,2.0
Cc1ccc(CNC(=O)c2ccccc2NC(=O)C2=CSCCO2)cc1,0.3,6345,-8.4,4.8,11.2,-5.9,9.1
